Source: PubChem BioAssay
Sfp inh – qHTS Assay for Inhibitors of Bacillus subtilis Sfp phosphopantetheinyl transferase (PPTase); 310,000 tested, 3.5% active; AID 1490, 2009; Potency, µM, for inactives: max response, negative = inhibition, hits mostly inhibitors; Biochemical Sfp PPTase activity, qHTS; 4'-phosphopantetheinyl transferase ffp (Bacillus subtilis), Q9F4F7; active = well fitted inhibition curve with a large enough effect; inconclusive = small, poorly fitted or top-dose-only effect, or another doubt; inactive = no such curve, though single readings can be large or run the other way;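 also: the enzyme is Sfp with the accession as filed and its product quenches rhodamine fluorescence; potency is read from the fitted curve at half-maximal effect; 0% = enzyme reaction without inhibitor and -100% = no enzyme wells; top concentration of the series not given in the record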
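Fluorescence-quenching assay: 15 nM Sfp-PPTase preincubated 15 min at room temperature with compound, then 5 uM rhodamine-CoA and 12.5 uM BHQ-2-labelled YbbR peptide added. Fluorescence (ex 525/em 598 nm) read at start and after 30 min; difference gives rate.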
ClpP mod – qHTS Assay for Activators of ClpP. purified B. subtilis ClpP, FRET peptide cleavage, 20 min. Potency, µM (titrated, usually from 57.5 µM), without a hit: top-dose activity change, negative = active. 340,000 tested, 1.9% active. AID 651965, 2013; active = well fitted falling curve with a large enough effect; inconclusive = small, poorly fitted or top-dose-only effect; inactive = no such curve, though single readings can be large or run the other way; also: potency is read from the fitted curve at half-maximal effect; the source files actives as falling curves though it sought activators and does not explain the sign; nearly all actives have a fitted effect of over 65% in size; many hits overshoot -100%
Target sequence (P80244 whole entry, looked up): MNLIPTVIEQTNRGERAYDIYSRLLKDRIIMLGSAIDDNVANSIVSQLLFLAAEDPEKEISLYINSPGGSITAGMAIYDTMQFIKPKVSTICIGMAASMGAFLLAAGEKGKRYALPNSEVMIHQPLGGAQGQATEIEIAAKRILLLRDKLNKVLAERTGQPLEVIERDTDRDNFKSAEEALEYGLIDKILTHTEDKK
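Purified B. subtilis ClpP, 10 microg/mL final in Tris/HCl pH8 with KCl, BSA, glycerol and Tween-20, cleaved an Abz/nitrotyrosine-quenched decapeptide. Fluorescence (ex 320, em 430) was read at 0 and 20 min at room temperature. Delta was normalized to 5.8 microM ADEP and DMSO/no-enzyme controls.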
gsp ag – qHTS for Agonist of gsp, the Etiologic Mutation Responsible for Fibrous Dysplasia/McCune-Albright Syndrome: qHTS | gsp mutant cells, cAMP HTRF, 30 min; control for the full effect not named in the record | 340,000 tested, 0.13% active | Potency, µM (top dose mostly 76.9 µM), inactives show at the highest dose activation (cAMP increase), actives largely listed as activators; active = well fitted activation curve with a large enough effect; inconclusive = small, poorly fitted or top-dose-only effect, or another doubt; inactive = no such curve, though single readings can be large or run the other way; cell line not stated here;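 also: phosphodiesterase inhibitor Ro 20-1724 added with compounds to block cAMP breakdown; potency is read from the fitted curve at half-maximal effect; nearly all actives have a fitted effect of over 60% in size; about a fifth of the inactives were tested at one dose only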
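Cells in DMEM/10% FBS with G418 were pretreated with compounds in DMSO plus […] (300 uM stock) for 30 min at 37C. cAMP was measured by HTRF (cAMP-d2 plus anti-cAMP antibody-K) after 30 min at room temperature.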
gsp antagonist – qHTS for Antagonists of gsp, the Etiologic Mutation Responsible for Fibrous Dysplasia/McCune-Albright Syndrome: qHTS. 340,000 tested, 0.4% active. gsp-mutant cells, cAMP HTRF, 30 min; control for the full effect not named in the record. Potency, µM (doses to about 76.9 µM), inactives show top-dose activity change, negative = inhibition, actives largely listed as inhibitors; active = falling curve of any shape with a large fitted effect; inconclusive = falling curve, mostly with a smaller effect; inactive = flat or rising curve; cell line not stated here;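 also: intracellular cAMP measured with PDE inhibitor Ro 20-1724 present during compound exposure; potency is read from the fitted curve at half-maximal effect; % is scaled to controls: 0 for no effect and ±100 for the full control effect; nearly all actives have a fitted effect of over 65% in size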
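G418-selected cells were plated in DMEM/10% FBS for 16-24 h at 37C, then treated with compounds plus the PDE inhibitor […] (300 uM solution added) for 30 min at 37C. Intracellular cAMP was measured by HTRF after 30 min lysis at room temperature.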
TRPV1 potentiator – HTS Assay for Compounds that Act as Potentiators of the Vanilloid Receptor 1. Transient receptor potential cation channel subfamily V member 1 (Homo sapiens), Q8NER1. TRPV1-expressing cells, Fluo-8 calcium influx, capsaicin EC20 potentiation; host cell line not named in the record; control for the full effect not named in the record. potentiation, % at 8.33 µM. 320,000 tested, 0.02% active; active means potentiation above 80%; inconclusive means 30% to 80%; inactive means below 30%; also: 0% is about no effect
Target sequence (Q8NER1 whole entry, looked up): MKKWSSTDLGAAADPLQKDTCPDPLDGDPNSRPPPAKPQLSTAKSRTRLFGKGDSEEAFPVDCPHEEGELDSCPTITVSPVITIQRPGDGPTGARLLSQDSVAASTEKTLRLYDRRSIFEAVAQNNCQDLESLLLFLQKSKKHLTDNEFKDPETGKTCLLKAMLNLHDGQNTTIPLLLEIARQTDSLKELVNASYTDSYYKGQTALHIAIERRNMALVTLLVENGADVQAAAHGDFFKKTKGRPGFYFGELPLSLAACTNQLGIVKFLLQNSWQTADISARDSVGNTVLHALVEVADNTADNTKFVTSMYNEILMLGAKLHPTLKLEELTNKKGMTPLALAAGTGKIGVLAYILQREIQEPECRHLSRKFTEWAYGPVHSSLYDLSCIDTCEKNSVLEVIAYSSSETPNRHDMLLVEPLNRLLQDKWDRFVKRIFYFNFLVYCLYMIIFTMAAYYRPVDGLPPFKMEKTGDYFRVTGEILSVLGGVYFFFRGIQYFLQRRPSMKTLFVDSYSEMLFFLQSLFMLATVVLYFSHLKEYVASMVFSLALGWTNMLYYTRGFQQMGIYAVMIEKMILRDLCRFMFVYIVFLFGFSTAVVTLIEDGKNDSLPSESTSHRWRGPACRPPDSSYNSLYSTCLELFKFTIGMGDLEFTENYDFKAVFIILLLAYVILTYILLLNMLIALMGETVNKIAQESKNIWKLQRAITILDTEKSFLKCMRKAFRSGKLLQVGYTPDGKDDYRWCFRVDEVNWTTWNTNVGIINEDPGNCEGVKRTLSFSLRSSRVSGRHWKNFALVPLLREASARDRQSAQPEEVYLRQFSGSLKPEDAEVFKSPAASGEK
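Fluo-8 calcium influx in TRPV1-expressing cells, kinetic read (ex 480/em 520 nm). Compound added and read 3 min for agonist activity, followed by capsaicin at EC20 final and 2 min further read for enhancement.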
Menin MLL FP FL – qHTS Assay for Inhibitors Targeting the Menin-MLL Interaction in MLL Related Leukemias: Competition With Fluorescein Labeled MLL-derived Peptide | Fluorescence polarization, fluorescein-MLL peptide displacement from menin | FP activity change, % at 61.4 µM | 290,000 tested, under 10 active | AID 1766, 2009; inconclusive = falling polarisation curve, or a change in total fluorescence; inactive = total fluorescence flat and polarisation flat or rising; no compound was filed as active; the % refers to the polarisation; negative = inhibition;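 also: % of control where 0% means no effect; inhibitors lower the polarisation; unlabelled MLL peptide was the positive control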
CtBP-E1A inh – qHTS Assay for Inhibitors of the CtBP/E1A Interaction | AID 651724, 2012 | CtBP / adenovirus E1A interaction (AlphaScreen) | AlphaScreen GST-E1A/His-CtBP binding, 1536-well; stronger effect = lower value; control for the full effect not named in the record | 340,000 tested, 0.49% active | activity change, % (no concentration beside the values); in the data active means activity change below about -65%; inconclusive means about -30% to -65%; inactive means above about -30%; also: % is scaled to controls: 0 for no effect and ±100 for the full control effect; compound concentration not given in the record
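AlphaScreen with 125 nM GST-E1A and 125 nM His-CtBP (5X stocks) in Tris pH 8.0, 300 mM NaCl, BSA, Tween 20, TCEP. Compounds preincubated 2 h at 37 deg C, then glutathione donor/nickel acceptor beads added for 1 h at 37 deg C in dark.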
* hit, by the source's call; ? = inconclusive; / = no result given; & = joins results of further samples; ! = not confirmed by another sample; [ ] = another dose, or the depositor's remark.

SMILES	Sfp inh	ClpP mod	gsp ag	gsp antagonist	TRPV1 potentiator	Menin MLL FP FL	CtBP-E1A inh
CCOC(=O)CN1CCS(=O)(=O)CC1	19%	-3.2%	?	6%	-9	-1.8	-8
C/C(=N\NC(=S)Nc1ccccc1C)c1ccc(O)cc1	25µM*	/	27%[15.4 µM]	-9%	8	-0.5	0
O=C(CCCSc1nc2ccccc2[nH]1)NC1=NCCS1	-2%	-2.6%	0%	4%	1	4.7	6
COc1ccc(C(C)=O)cc1CSc1nnc(Nc2ccc(C)cc2C)s1	7%	/	-14%[15.4 µM]	-29%	-5	2.8	-1
COC(=O)c1cc(C#N)c(N2CCOCC2)nc1C	7%	/	22%	2%	17	-1.5	3
Cc1cc(C)nc(NS(=O)(=O)c2ccc(NC(=O)Cc3ccc(F)cc3)cc2)n1	4%	-4.1%	17%	2%	6	2.5	-11
C/C(N)=C(/C#N)C(=O)CSc1nc2ccccc2c(=O)n1CCCO	5%	-1.3%	5%[15.4 µM]	-3%	-9	/	-1
CC(=O)N(O)CCCCCNC(=O)CCC(=O)N(O)CCCCCNC(=O)CCC(=O)N(O)CCCCCN	45µM*!	-3.1%&2.7%	-32%[inhibitor]	9%&2%	11	-3.0	-1&-7
Cc1ccc(C(=O)N2CCCC(Nc3ccc(F)c(F)c3)C2)cn1 (configuration not stated)	5%	-2.6%	?	1%	6	/	-13
CC(Sc1nc2ccccc2c(=O)n1Cc1ccco1)C(=O)c1ccccc1 (configuration not stated)	-21%	-8.6%	-5%	4%	-8	3.6	0
Cc1cc(C)c2nc(SCC(=O)NCCC3=CCCCC3)cc(C)c2c1	3%	7.2%	-7%	-4%	1	13	-2
Cc1cccc2cc(COC(=O)c3ccccc3)c(=O)[nH]c12	-6%	-1.6%	7%	-4%	12	0.7	-1
CCCCCc1c(C)nc(N2CCOCC2)[nH]c1=O	15%	-2.2%	4%	12%	-29	-1.3	6
O=S(=O)(c1ccc(Cl)cc1)c1cnc(-c2cccnc2)nc1-c1ccccc1	1%	0.4%	-18%	22%	-4	5.8	-1
Cc1sc2nc(CSC(C)C(=O)Nc3ccc(Cl)cn3)[nH]c(=O)c2c1C (configuration not stated)	/	-5.0%	1%	10%	12	/	3
COc1ccc(-c2nc3ccccc3n2CCC(C)C)cc1OC	3%	?	-26%	-12%	6	0.9	0
Cc1ccn(S(=O)(=O)c2ccc(N3CCCC3=O)cc2)n1	1%	/	?	-2%	-6	-1.7	3
Cc1ccc(N(C)S(=O)(=O)c2cccc(C(=O)NC3=NCCS3)c2)cc1	8%	-0.2%	11%	?	-15	-0.8	-13
CCCc1[nH]nc2c1C1(CCN(C(=O)OCc3ccccc3)CC1)C(C#N)=C(N)O2	10%	-2.9%	-26%	-11%	6	8.1	4
CN1CCc2c(OCC(=O)N3CCC(Cc4ccccc4)CC3)cccc2C1=O	-6%	-0.6%	5%[15.4 µM]	-75%	-16	5.1	-2
COC(=O)C(C(=O)Nc1nc2ccccc2s1)C1CCCC1 (configuration not stated)	-2%	-2.2%	?	4%	?	1.6	/
COC(=O)c1ccccc1NC(=O)NC1CCCCC1	8%	4.4%	21%	-8%	12	-1.1	/
CCOc1ccc(N2CC(C(=O)Nc3ccncc3)CC2=O)cc1 (configuration not stated)	13%	-2.5%	-4%[15.4 µM]	8%	1	-1.7	4
COc1cccc(C(=O)CC(C#N)c2ccc(F)cc2)c1 (configuration not stated)	10%	-6.4%	?	-10%	6	3.7	0

Among those listed so far, 5 have an NH in an aromatic ring.
SMILES	Sfp inh	ClpP mod	gsp ag	gsp antagonist	TRPV1 potentiator	Menin MLL FP FL	CtBP-E1A inh
O=C(CCCSc1nc2ccccc2[nH]1)NC1=NCCS1	-2%	-2.6%	0%	4%	1	4.7	6
Cc1cccc2cc(COC(=O)c3ccccc3)c(=O)[nH]c12	-6%	-1.6%	7%	-4%	12	0.7	-1
CCCCCc1c(C)nc(N2CCOCC2)[nH]c1=O	15%	-2.2%	4%	12%	-29	-1.3	6
Cc1sc2nc(CSC(C)C(=O)Nc3ccc(Cl)cn3)[nH]c(=O)c2c1C (configuration not stated)	/	-5.0%	1%	10%	12	/	3
CCCc1[nH]nc2c1C1(CCN(C(=O)OCc3ccccc3)CC1)C(C#N)=C(N)O2	10%	-2.9%	-26%	-11%	6	8.1	4

A few values from above.
Under Menin MLL FP FL, CCOc1ccc(N2CC(C(=O)Nc3ccncc3)CC2=O)cc1 (configuration not stated) is listed with -1.7
Under Sfp inh, COc1ccc(-c2nc3ccccc3n2CCC(C)C)cc1OC is listed with 3%

Continued.
SMILES	Sfp inh	ClpP mod	gsp ag	gsp antagonist	TRPV1 potentiator	Menin MLL FP FL	CtBP-E1A inh
Cc1cc(C)cc(OC(C)C(=O)NCCCn2ccnc2)c1 (configuration not stated)	11%	/	17%[15.4 µM]	4%	0	4.0	4
Cc1cc(C)c(C#N)c(SC(F)F)n1	3%	-1.8%	25%	5%	8	2.9	-5
Cc1ccc(-n2c(SCC(=O)Nc3ncc(Cl)cc3Cl)nc3ccccc32)cc1	?	-1.9%	15%	?	14	7.5	-2
Cc1cc(C)n(-c2nc3ccccc3c(=O)n2OCC(N)=O)n1	7%	-3.1%	11%	6%	-14	3.7	-5
O=C(NCc1cccnc1)c1cn(-c2ccccc2)nc1-c1ccccc1	11%	/	-5%[15.4 µM]	/	-4	-0.5	2
O=C(NCCc1ccc(F)cc1)c1ccc(S(=O)(=O)N2CCCC2)cc1	/	-3.2%	?	-9%	-24	/	7
COc1nc(C)nc2c1sc1nc3c(cc12)COC(C)(C)C3	19%	28µM*	0%	4%	4	-3.0	-12
Cc1oc(-c2ccc(Cl)cc2)nc1CS(=O)CC(=O)NCCCN1CCOCC1 (configuration not stated)	15%	-2.7%	1%	-12%	5	/	/
COc1cc(NS(=O)(=O)c2ccc(Br)s2)cc(OC)c1	11%	-5.2%	-6%	-18%	12	1.9	7
CCOC(=O)c1[nH]cnc1C(=O)N1CCC(C)CC1	/	-3.0%	?	5%	?	/	-12
CCC(c1nnnn1CCOC)N(Cc1cc2cc(C)c(C)cc2[nH]c1=O)CC1CCCO1 (configuration not stated)	?	?	?	-10%	1	-1.7	-5
O=C(CNc1ccccc1)Nc1cccc2ccccc12	-9%	-1.1%	14%[15.4 µM]	5%	12	0.1	-19
COC(=O)CCC(=O)N1CCCC(C(=O)c2ccc(Cl)cc2C)C1 (configuration not stated)	21%	0.4%	6%[15.4 µM]	-12%	5	2.5	2
Cc1ccc(C(=O)Nc2ccccc2Oc2ccccc2)o1	/	0.3%	?	1%	/	/	11
Cc1ccc(C)c(CN2CCC(CNC(=O)CCc3nnc4ccc(N5CCCCC5)nn34)CC2)c1	6%	-1.4%	?	-15%	2	/	/
Cc1ccc(NC(=O)N2CCCC2C(=O)NCc2ccc(Cl)cc2)cc1 (configuration not stated)	14%	-1.5%	8%	-15%	-4	-0.9	0
CCc1ccccc1NS(=O)(=O)c1ccc2[nH]cc(C(=O)NC3CCCC3)c(=O)c2c1	18%	?	-6%	?	7	1.9	-5
O=C(OCCN1C(=O)c2ccccc2C1=O)c1cc(=O)[nH]c2ccccc12	7%	4.6%	?	4%	24	5.8	8
CCOc1ccccc1N1CCN(C(=O)c2cc3c(s2)CCC3)CC1	-4%	0.4%	0%	-9%	-5	0.9	-4
CCCCn1c(N)c(N(CC(C)C)C(=O)CSCC(=O)Nc2ccc(OC)cc2)c(=O)[nH]c1=O	/	-1.2%	0%	5%	11	/	-3
COc1ccc(NC(=O)CNC(=O)CC23CC4CC(CC(C4)C2)C3)c(OC)c1	/	-0.2%	24%[15.4 µM]	-5%	?	/	4
O=C(Nc1nc(-c2ccccc2)cs1)c1ccc2c(c1)S(=O)(=O)c1ccccc1C2=O	8%	1.8%	5%	4%	-4	34[activator]	-15
COc1ccc(C(=O)NN2C(=S)N(c3ccc(OC)cc3)C(=O)C2CC(N)=O)cc1 (configuration not stated)	7%	0.4%	16%[15.4 µM]	9%	11	4.3	6
CCOC(=O)NC(CC(=O)O)c1ccc(OCC)cc1 (configuration not stated)	22%	-2.6%	1%	1%	-2	3.2	7
COc1ccc(-c2oc3cccnc3c2C#CC2(O)CCCCC2)cc1	79µM*	4.8%	3%	-7%	7	0.9	-13
CC1C2(C)OC(=N)C(C#N)(C(C)O2)C1(C#N)C#N (configuration not stated)	-10%	/	?	-4%	0	?	0
CC(C)NC(=O)N(C)C[C@@H]1Oc2c(NC(=O)C3CCOCC3)cccc2C(=O)N([C@@H](C)CO)C[C@H]1C	/	-1.2%	/	4%	/	/	8
CC1(C)CC(=O)c2sc(NS(C)(=O)=O)nc2C1	-6%	-17%	6%	5%	22	0.1	-5
O=C(CCCOc1ccc(Br)cc1)NCCc1ccc(OC(F)F)cc1	18%	/	19%[15.4 µM]	0%	12	-3.4	9
O=S(=O)(Nc1ccc(O)c2ccccc12)c1ccc(F)cc1	/	-5.0%	1%	-3%	/	/	0
